Choline anaer gr = blocks anaerobic gram-negative growth on choline; 55,000 tested, 0.2% active; Gram-negative bacterium anaerobic choline minimal medium, absorbance growth; active compounds read low; many inactives read as strong as hits in the columns shown; calls only;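 active = growth z-score on choline under -2 at 7 or 20 h with little or no fall on glycerol, limits in tiers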;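 also: stock transfer was 300 nL into about 50 µL; the organism is E. coli; final concentration not given here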
Choline anaer gr early = also measured in Choline anaer gr; calls as there; z-score; measured here: choline growth z-score, timepoint 1;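 score of optical density at 7 h as mean of two plates; lower means less growth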
An asterisk follows results filed as active. This is a subset (hit frequency here may not be typical).

Results for Cc1ccc(-c2nc3ccccc3c3nnc(SCc4cc(=O)n5cc(Cl)ccc5n4)n23)cc1 ?
Choline anaer gr: inactive; Choline anaer gr early: -0.18

How did Cc1noc(C)c1CCNC(=O)CCCc1nnc(C(=O)Nc2ccccc2)s1 do in these assays?
Choline anaer gr: inactive; Choline anaer gr early: -0.64

Results for O=C(Nc1cccc(Cl)c1)c1nnc(C2CCCN(C(=O)NC3CCCCC3)C2)s1 (stereo not given) ?
Choline anaer gr: inactive; Choline anaer gr early: 0.2

Results for CCN1c2cc(C)ccc2-n2cccc2C12CCN(S(=O)(=O)c1ccc3c(c1)oc(=O)n3C)CC2 ?
Choline anaer gr: inactive; Choline anaer gr early: 1.1

Results for Cc1[nH]c(C(=O)N2CCC(CC(=O)NCc3ccccc3)CC2)c(C)c1C(=O)OC(C)C ?
Choline anaer gr: inactive; Choline anaer gr early: 0.46

What do the screens show for `Cc1cccc(-c2nn3c(C)nnc3s2)c1`?
Choline anaer gr: inactive; Choline anaer gr early: 0.17

What do the screens show for `Cc1cc(C)c(-c2n[nH]c3c2C(c2ccccc2F)N(CC2CCCO2)C3=O)c(O)c1` (stereo not given)?
Choline anaer gr: inactive; Choline anaer gr early: 0.39

How did COc1ccc2cccc(N3CCN(CCNC(=O)c4ccc(F)cc4)CC3)c2c1 do in these assays?
Choline anaer gr: inactive; Choline anaer gr early: 0.94

Results for COc1cc(C2CC(=O)Nc3nc(N)[nH]c(=O)c32)ccc1OCc1ccc(Cl)cc1 (stereo not given) ?
Choline anaer gr: inactive; Choline anaer gr early: 0.25

How did CCC1CCCCN1C(=O)C1CCCN1C(C)=O (stereo not given) do in these assays?
Choline anaer gr: inactive; Choline anaer gr early: -1.5

How did O=C(NC1CCCCC1)C1c2cccn2CC(=O)N1C1CC1 (stereo not given) do in these assays?
Choline anaer gr: inactive; Choline anaer gr early: -1.3

How did COc1ccc2c(c1)NC1(CCN(C(=O)Nc3ccccc3Br)CC1)c1cccn1-2 do in these assays?
Choline anaer gr: inactive; Choline anaer gr early: -0.4

Results for c1nc2c(c(N3CCN(Cc4ccoc4)CC3)n1)CCC2 ?
Choline anaer gr: inactive; Choline anaer gr early: -2.5

What do the screens show for `COc1ccc(-c2noc(CN3CCC(C)CC3)n2)cc1OC`?
Choline anaer gr: inactive; Choline anaer gr early: -1.6

How did Fc1ccc(Cl)cc1-c1nc(Nc2ccncc2)c2nccnc2n1 do in these assays?
Choline anaer gr: inactive; Choline anaer gr early: 0.37

How did COc1ccccc1N1CCN(c2ccc(=O)n(CC(=O)NCCN3CCCC3)n2)CC1 do in these assays?
Choline anaer gr: inactive; Choline anaer gr early: -0.73

Results for CCN(CC)CCCNC(=O)c1ccc(Nc2ccnc(-c3cccc(C)c3)n2)cc1 ?
Choline anaer gr: inactive; Choline anaer gr early: 0.21

How did CC(C)Cn1c(C2CCCO2)nc2ccccc21 (stereo not given) do in these assays?
Choline anaer gr: inactive; Choline anaer gr early: 0.16

Results for Cc1cccc(N2CCN(C(=O)C3CCN(S(=O)(=O)c4cn(C)c(C)n4)CC3)CC2)c1C ?
Choline anaer gr: inactive; Choline anaer gr early: -0.56

Results for O=C(NCc1ccccn1)c1cccc(C(=O)NCc2ccccn2)n1 ?
Choline anaer gr: inactive; Choline anaer gr early: -0.86

A section from further up, for reference:
Results for Cc1ccc(-c2nc3ccccc3c3nnc(SCc4cc(=O)n5cc(Cl)ccc5n4)n23)cc1 ?
Choline anaer gr: inactive; Choline anaer gr early: -0.18

How did Cc1noc(C)c1CCNC(=O)CCCc1nnc(C(=O)Nc2ccccc2)s1 do in these assays?
Choline anaer gr: inactive; Choline anaer gr early: -0.64

New compounds follow.
What do the screens show for `CCOC(=O)c1onc(-c2ccc(Br)cc2)c1N`?
Choline anaer gr: inactive; Choline anaer gr early: -1.3

What do the screens show for `COc1ccc(Br)cc1CNC(=O)c1ccc(N2C(=O)Cn3c(cc4sccc43)C2=O)cc1`?
Choline anaer gr: inactive; Choline anaer gr early: 2

Results for CCNC(=O)C1Cc2ccccc2N1C(=O)CC (stereo not given) ?
Choline anaer gr: inactive; Choline anaer gr early: -0.44

What do the screens show for `O=C(NCc1ccc2c(c1)OCO2)C1CCN(c2ccc(-c3cccc(F)c3)nn2)CC1`?
Choline anaer gr: inactive; Choline anaer gr early: 2.2

Results for Cc1noc(C)c1S(=O)(=O)N1CCCn2nc(-c3cccc(C(F)(F)F)c3)cc2C1 ?
Choline anaer gr: inactive; Choline anaer gr early: 0.72

Results for CC1CCN(S(=O)(=O)c2ccc3c(ccn3CCC(=O)NCCc3ccccc3)c2)CC1 ?
Choline anaer gr: inactive; Choline anaer gr early: 1.3

How did CC(=O)Nc1ccc(S(=O)(=O)NCc2ccc3c(c2)N(C(=O)c2ccccc2)CC3)cc1 do in these assays?
Choline anaer gr: inactive; Choline anaer gr early: 1.3

What do the screens show for `Cc1cccc(Cn2c(C)c(CNCC3CCCO3)c(C(=O)O)c2C)c1` (stereo not given)?
Choline anaer gr: inactive; Choline anaer gr early: -0.11

Results for O=c1ccn(-c2cccc(F)c2)nc1-c1nc(-c2ccccc2Br)no1 ?
Choline anaer gr: inactive; Choline anaer gr early: 0.37

Results for Cc1ccc(-c2nn(C)c(=O)c3ccccc23)cc1S(=O)(=O)N1CCC(Cc2ccccc2)CC1 ?
Choline anaer gr: inactive; Choline anaer gr early: 0.3

Results for CCOCC(=O)N1CCc2c(c(C(=O)N3CCCC(C(=O)Nc4ccccc4)C3)nn2C)C1 (stereo not given) ?
Choline anaer gr: inactive; Choline anaer gr early: -1.3

How did CCn1c(=O)c(C)nc2cc(C(=O)NCCc3c[nH]c4ccc(C)cc34)ccc21 do in these assays?
Choline anaer gr: inactive; Choline anaer gr early: -0.54

Results for O=C(NCCc1c[nH]c2ccccc12)c1cc(=O)nc2sc(N3CCCC3)nn12 ?
Choline anaer gr: inactive; Choline anaer gr early: -1.6

What do the screens show for `CCOc1ccc(N(Cc2nc3nc(C)cc(=O)n3[nH]2)C(=O)COC)cc1`?
Choline anaer gr: inactive; Choline anaer gr early: -0.37

Results for NS(=O)(=O)c1ccc(-n2nc(C(F)(F)F)cc2-c2ccc(Cl)cc2)cc1 ?
Choline anaer gr: inactive; Choline anaer gr early: -0.8

What do the screens show for `O=C(NCCc1nc2cccnc2n1-c1ccccc1)Nc1ccccc1F`?
Choline anaer gr: inactive; Choline anaer gr early: -0.66

How did CSc1ccc(CNCCSc2nnnn2C)cc1 do in these assays?
Choline anaer gr: inactive; Choline anaer gr early: 0.3

Results for CN1CCN(C(=O)c2c[nH]c3ccc(F)cc3c2=O)CC1 ?
Choline anaer gr: inactive; Choline anaer gr early: -0.68

What do the screens show for `O=C(C1Nc2cc(F)ccc2S(=O)(=O)N1)N1CCN(c2ccc(Cl)cc2)CC1` (stereo not given)?
Choline anaer gr: inactive; Choline anaer gr early: -0.28

What do the screens show for `CC(C)NC(=O)c1ccc2c(=O)n(CCc3ccccc3)c(SCc3ccccc3F)nc2c1`?
Choline anaer gr: inactive; Choline anaer gr early: 0.42

Results for CNc1ncnc2c1cnn2-c1ccc(C)cc1 ?
Choline anaer gr: inactive; Choline anaer gr early: 0.35

Results for O=C(NCc1cc(=O)n2nc(-c3ccccc3)sc2n1)Nc1ccccc1 ?
Choline anaer gr: inactive; Choline anaer gr early: 1.6

How did CCOc1ccc(C(=O)Nc2cc(C)nn2-c2ncnc3c2cnn3-c2ccccc2)cc1OCC do in these assays?
Choline anaer gr: inactive; Choline anaer gr early: 0.48

How did O=C(C1CCN(S(=O)(=O)c2cccnc2)CC1)N1CCN(C(c2ccccc2)c2ccc(Cl)cc2)CC1 (stereo not given) do in these assays?
Choline anaer gr: inactive; Choline anaer gr early: 1.1

What do the screens show for `CCc1onc(C)c1C1CCCN1C(=O)c1cc(C)no1` (stereo not given)?
Choline anaer gr: inactive; Choline anaer gr early: -0.05

Results for NS(=O)(=O)c1ccc(CCNC(=O)Cn2c(=O)c3cccn3c3cccnc32)cc1 ?
Choline anaer gr: inactive; Choline anaer gr early: -0.06

Results for Cc1ccc2[nH]cc(CCNC(=O)c3ccc(Cn4c(=O)c(C)nc5ccccc54)cc3)c2c1 ?
Choline anaer gr: inactive; Choline anaer gr early: 0.45

Results for Clc1ccc(CSc2nnc([C@@H]3CCCN3)o2)cc1 ?
Choline anaer gr: inactive; Choline anaer gr early: -1.4

How did CCOC(=O)c1cn[nH]c1S(=O)(=O)N1CCCC1 do in these assays?
Choline anaer gr: inactive; Choline anaer gr early: -1.1

How did O=C(Nc1cccc(F)c1)c1ccc(-c2cnc(NC3CCCCC3)nc2)cc1 do in these assays?
Choline anaer gr: inactive; Choline anaer gr early: -0.56

Results for CCCN1C(=O)c2c(C(=O)Nc3ccc(Br)cc3F)ncn2CC1(C)C(=O)NC1CCCC1 (stereo not given) ?
Choline anaer gr: inactive; Choline anaer gr early: -0.3

Results for Cc1ccc(C)c(-c2csc(Cc3nc(-c4ccc(F)cc4)no3)n2)c1 ?
Choline anaer gr: inactive; Choline anaer gr early: -0.01

How did Fc1ccc(-c2cc3c(N4CCN(Cc5ccccc5)CC4)nccn3n2)cc1 do in these assays?
Choline anaer gr: inactive; Choline anaer gr early: 1.1

What do the screens show for `Cc1cccc(NC(c2ccccn2)c2c(NC(=O)c3ccccc3)sc3c2CCCC3)n1` (stereo not given)?
Choline anaer gr: inactive; Choline anaer gr early: 0.01

What do the screens show for `O=C(CCC(=O)N1CC=C(c2c[nH]c3ccccc23)CC1)NCc1cccc(Cl)c1`?
Choline anaer gr: active; Choline anaer gr early: -1.4*

How did CCC(C(=O)Nc1ccc(F)cc1)n1nc(-c2ccc(C)cc2)c2c(c1=O)CCCC2 (stereo not given) do in these assays?
Choline anaer gr: inactive; Choline anaer gr early: -0.32

What do the screens show for `O=C(c1ccc2ccnc(N3CCN(c4ccccc4)CC3)c2c1)N1CCN(c2ncccn2)CC1`?
Choline anaer gr: inactive; Choline anaer gr early: 0.19

Results for O=c1c2ccccc2ncn1Cc1noc(C2CCC2)n1 ?
Choline anaer gr: inactive; Choline anaer gr early: -0.97

Results for Cc1nc(N2CCOCC2)cc(N2CCN(S(C)(=O)=O)CC2)n1 ?
Choline anaer gr: inactive; Choline anaer gr early: -0.01

How did Cc1ccc(Nc2nc(NCC(C)O)nc3c2cnn3-c2ccccc2)cc1 (stereo not given) do in these assays?
Choline anaer gr: inactive; Choline anaer gr early: 0.19

Among those listed so far, 5 have bromine.
How did COc1ccc2c(c1)NC1(CCN(C(=O)Nc3ccccc3Br)CC1)c1cccn1-2 do in these assays?
Choline anaer gr: inactive; Choline anaer gr early: -0.4

What do the screens show for `CCOC(=O)c1onc(-c2ccc(Br)cc2)c1N`?
Choline anaer gr: inactive; Choline anaer gr early: -1.3

What do the screens show for `COc1ccc(Br)cc1CNC(=O)c1ccc(N2C(=O)Cn3c(cc4sccc43)C2=O)cc1`?
Choline anaer gr: inactive; Choline anaer gr early: 2

Results for O=c1ccn(-c2cccc(F)c2)nc1-c1nc(-c2ccccc2Br)no1 ?
Choline anaer gr: inactive; Choline anaer gr early: 0.37

Results for CCCN1C(=O)c2c(C(=O)Nc3ccc(Br)cc3F)ncn2CC1(C)C(=O)NC1CCCC1 (stereo not given) ?
Choline anaer gr: inactive; Choline anaer gr early: -0.3

Grouped by structure: those above containing a CF3 group
Results for Cc1noc(C)c1S(=O)(=O)N1CCCn2nc(-c3cccc(C(F)(F)F)c3)cc2C1 ?
Choline anaer gr: inactive; Choline anaer gr early: 0.72

Results for NS(=O)(=O)c1ccc(-n2nc(C(F)(F)F)cc2-c2ccc(Cl)cc2)cc1 ?
Choline anaer gr: inactive; Choline anaer gr early: -0.8

(listing goes on)
Results for Cc1cc(-n2c(C)nc3ccccc3c2=O)ccc1NC(=O)C(C)(C)C ?
Choline anaer gr: inactive; Choline anaer gr early: -0.36

Results for COc1cc(OC)c(NC(=O)Cn2c(=O)c(C(F)(F)F)nc3ccccc32)cc1Cl ?
Choline anaer gr: inactive; Choline anaer gr early: 0.32

What do the screens show for `O=C(c1ccc(N2CCCC2)c(S(=O)(=O)N2CCCC2)c1)N1CCN(c2ccccn2)CC1`?
Choline anaer gr: inactive; Choline anaer gr early: -0.55

What do the screens show for `Cc1ccc(NC(=O)COc2cccc3ccc(N4CCCCC4)nc23)cc1`?
Choline anaer gr: inactive; Choline anaer gr early: 0.63

Results for CC1CCCCN1C(=O)Cn1c(=O)oc2ccccc21 (stereo not given) ?
Choline anaer gr: inactive; Choline anaer gr early: -0.43

How did CCCn1c(CCc2cccc(NS(=O)(=O)c3cnn(CC)c3)c2)nc2ccccc21 do in these assays?
Choline anaer gr: inactive; Choline anaer gr early: -0.19

Results for Cc1nc(-c2ccc3c(c2)n(CC(=O)N2CCn4c2nc2ccccc24)c(=O)n3C(C)C)no1 ?
Choline anaer gr: inactive; Choline anaer gr early: 0.28

Results for COc1ccc(COc2ccc(=O)n(-c3ccc(C(=O)NC4CCCCC4)cc3)n2)cc1 ?
Choline anaer gr: inactive; Choline anaer gr early: 0.54

Results for Cc1ccc(CN(Cc2cc(=O)n3cc(C)sc3n2)CC(C)C)cc1 ?
Choline anaer gr: inactive; Choline anaer gr early: 0.12

How did CCCCCN1C(=O)CC(C)Nc2ccccc21 (stereo not given) do in these assays?
Choline anaer gr: inactive; Choline anaer gr early: -1.8

What do the screens show for `CNC(=O)C1CCN(c2ccc(F)cc2)C1=O` (stereo not given)?
Choline anaer gr: inactive; Choline anaer gr early: 0.39

How did COc1ccc(OC)c(C2CC(=O)Nc3c2cnn3-c2ccc3nnc(C)n3n2)c1 (stereo not given) do in these assays?
Choline anaer gr: inactive; Choline anaer gr early: 0.47

Results for CCCc1cc(=O)[nH]c(-n2nc(C)cc2NC(=O)c2cc(C)cc(C)c2)n1 ?
Choline anaer gr: inactive; Choline anaer gr early: -0.3

How did O=C(CN1C(=O)c2ccccc2C1=O)Nc1cc(Cl)ccc1OCc1cc(=O)n2ccsc2n1 do in these assays?
Choline anaer gr: inactive; Choline anaer gr early: -0.34
